# Screens deposited in PubChem by several laboratories.
# Arbovirus inh: antivirals against arbovirus infection; arbovirus infection cell-based antiviral screen; inhibition, % at 10 µM; 200,000 compounds, 0.37% hits; AID 1251;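 active = inhibition from about 30%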;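 also: bluetongue infection of BSR cells; cell survival read as ATP light after 72 h; 0% = infected wells without compound and 100% = uninfected wells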
# YopH inh: blocks Yersinia enterocolitica YopH tyrosine phosphatase; fluorescence Ex485/Em525; inhibition, %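 (about 10 µM by stock and volumes)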; 140,000 compounds, 0.16% hits; AID 898;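 active = inhibition of 50% or more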;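 also: controls were vehicle for no effect and minimum signal wells for full effect; inactives centre near -20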
# RecA intein inh: inhibitors of M. tuberculosis RecA intein splicing; P9WHJ3; cell-free RecA intein splicing, fluorescence; inhibition, %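 (about 9 µM by stock and volumes)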; 290,000 compounds, 0.75% hits; AID 2221; in the data active = inhibition above about 30%;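 also: 0% = vehicle wells and 100% = reference inhibitor control wells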
# Target sequence (P9WHJ3 whole entry, looked up): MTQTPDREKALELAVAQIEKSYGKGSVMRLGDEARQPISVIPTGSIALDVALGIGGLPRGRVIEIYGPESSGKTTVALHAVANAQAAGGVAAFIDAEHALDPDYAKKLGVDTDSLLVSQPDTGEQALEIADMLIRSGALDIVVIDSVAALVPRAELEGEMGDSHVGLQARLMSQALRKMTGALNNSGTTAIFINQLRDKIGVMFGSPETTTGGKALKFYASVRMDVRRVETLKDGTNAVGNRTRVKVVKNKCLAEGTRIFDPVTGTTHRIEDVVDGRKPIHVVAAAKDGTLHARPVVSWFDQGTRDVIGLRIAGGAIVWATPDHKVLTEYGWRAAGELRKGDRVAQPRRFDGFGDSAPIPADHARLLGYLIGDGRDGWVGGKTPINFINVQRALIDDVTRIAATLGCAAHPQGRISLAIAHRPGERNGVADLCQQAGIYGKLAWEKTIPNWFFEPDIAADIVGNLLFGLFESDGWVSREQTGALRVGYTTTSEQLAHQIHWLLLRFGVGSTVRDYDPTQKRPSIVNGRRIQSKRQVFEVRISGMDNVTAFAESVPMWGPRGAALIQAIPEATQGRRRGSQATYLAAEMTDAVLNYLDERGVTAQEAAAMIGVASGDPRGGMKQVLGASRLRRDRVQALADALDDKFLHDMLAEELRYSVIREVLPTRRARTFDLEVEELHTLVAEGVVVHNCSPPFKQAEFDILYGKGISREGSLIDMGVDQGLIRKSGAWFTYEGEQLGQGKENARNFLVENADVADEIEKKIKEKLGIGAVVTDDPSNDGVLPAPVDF
# Mtb H37Rv: M. tuberculosis H37Rv growth inhibitors, H37Rv strain (AID 1626) | M. tuberculosis H37Rv growth inhibition; higher % means a stronger effect | inhibition, % at 10 µM, or IC50 in µM where a hit was titrated | 220,000 compounds, 0.95% hits;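 active = confirmed in a dose series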;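 also: bacteria incubated seven days before Alamar blue readout; 0% = bacteria only wells and 100% = bacteria with antibiotic wells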
# Mtb betalactam: beta-lactam sensitization of Mtb H37Rv; M. tuberculosis H37Rv growth with meropenem, percent inhibition; hits of this screen are not shown here; inhibition, % at 25 µM; 330,000 compounds, 0.27% hits;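 active = about 74% or more and at least 40 points above the plate without the antibiotic, then above 30% in a dose series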;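 also: growth measured after seven days incubation then overnight dye step; 0% = bacteria only wells and 100% = bacteria with antibiotic; twin plates without the antibiotic show which effects depend on it; some results filed as inactive read as strong as hits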
# Arbovirus inh repeat: also measured in Arbovirus inh; calls as there; inhibition, %; measured here: 10K subset replicate screen; many hits read low in the repeat;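 first of two repeat runs on a subset; 0% = infected and 100% = uninfected wells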
# Starred values were filed as active, the others as inactive; . = not tested or not shown. A portion of the library. The share of hits here may be higher or lower than overall.
SMILES,Arbovirus inh,YopH inh,RecA intein inh,Mtb H37Rv,Mtb betalactam,others
COc1ccc(C2C3=C(N=C4SCC(=O)N42)c2ccccc2CC3)cc1 (centres undefined),3,6,3.8,-12%,66,
CCOC(=O)N1CCN(C(=S)NC)CC1,3,-21,-2.7,-8%,0,
CC(C)c1nnc(NC(=O)c2cccc(NC(=O)C(F)(F)F)c2)s1,5,.,-2.2,2%,3,
Cc1onc(-c2ccccc2Cl)c1C(=O)Nc1cccc(S(=O)(=O)NC2=NCCC2)c1,.,.,-0.4,.,1,
COc1ccccc1C(=O)NCCC(=O)N1CCCCC1,.,.,-0.4,.,3,
CCn1ncc([N+](=O)[O-])c1C(=O)n1nc(C)cc1C,-9,-15,3.0,-2%,-1,
COc1ccccc1/C=C/C(=O)Nc1ccc(N2CCOCC2)cc1,-5,.,.,3%,-3,
O=C(COC(=O)c1c2c(nc3ccccc13)/C(=C/c1ccco1)CC2)NC1CCCC1,-8,-3,-143,11%,.,
COc1ccc2[nH]c(=O)c(CN(Cc3cccs3)Cc3nnnn3Cc3ccccc3)cc2c1,7,-26,1.0,-2%,-14,
O=C(NNC(=O)C1CCN(Cc2ccc(Cl)c(Cl)c2)CC1)c1cccs1,6,.,-0.9,3%,-2,
COc1ccc(C2NC(=O)c3sc(=S)n(-c4ccccc4)c3N2)cc1 (centres undefined),-9,-37,0.1,-9%,3,
O=C1CC(N2CCN(c3ccc(C(=O)c4ccc(F)cc4)cc3)CC2)C(=O)N1 (centres undefined),11,-25,-0.8,-5%,4,
COCCCNC(=O)c1ccc(-c2nc3ccccc3nc2-c2ccccc2)cc1,.,.,6.9,.,5,
CCC(C)Sc1nnc(CNS(=O)(=O)c2ccc(F)cc2)n1C (centres undefined),.,.,2.8,.,0,
O=C(CCC(=O)c1ccccc1)Nc1ccccc1OC(F)F,.,.,-0.3,.,-2,
CCOC(=O)c1c(C)nc2cc(C)ccn12,-6,-30,-2.6,64%,-3,
O=C(NC1CCCC1)c1ccc2c(c1)S(=O)(=O)c1ccccc1C2=O,.,.,-2.6,-3%,-6,
O=C(Nc1nncs1)c1ccccc1Br,-5,-27,1.1,6%,-8,
CC(Cl)C(=O)NC(=O)NC12CC3CC(CC(C3)C1)C2 (centres undefined),2,-19,3.6,48%,93,
CCC1CN(C)CCC1(OC(C)=O)c1ccccc1 (centres undefined),3,13,2.4,2%,0,
Cc1ccc2nc3sc(C(=O)N4CCOCC4)c(N)c3cc2c1,-3,2,.,-2%,13,
COc1ccc(CN2C(=O)C(C)=C(C)C2OC)cc1 (centres undefined),.,.,1.2,.,-7,
COc1ccc(/C=C/c2nc(-c3ccccc3O)n[nH]2)cc1,7,-22,4.8,74%,91,
COc1cccc(-c2cccc(NC(=O)C3CCN(Cc4cnn(C)c4)CC3)c2)c1,.,.,4.0,.,0,

# Random excerpt: 4 compounds from above, in no set order.
SMILES,Arbovirus inh,YopH inh,RecA intein inh,Mtb H37Rv,Mtb betalactam,others
COc1cccc(-c2cccc(NC(=O)C3CCN(Cc4cnn(C)c4)CC3)c2)c1,.,.,4.0,.,0,
CCOC(=O)c1c(C)nc2cc(C)ccn12,-6,-30,-2.6,64%,-3,
O=C(Nc1nncs1)c1ccccc1Br,-5,-27,1.1,6%,-8,
Cc1ccc2nc3sc(C(=O)N4CCOCC4)c(N)c3cc2c1,-3,2,.,-2%,13,

# Following part:
SMILES,Arbovirus inh,YopH inh,RecA intein inh,Mtb H37Rv,Mtb betalactam,others
Brc1ccc(-c2n(-c3ccccn3)c3ccccc3[n+]2-c2ccccn2)cc1,.,.,6.9,7%,0,
O=C(CC(=O)NC1CCCCC1)N/N=C/c1ccccc1F,5,.,-0.7,4%,-1,
O=C(CCS(=O)(=O)c1ccccc1Cl)Nc1ccc(S(=O)(=O)Nc2ncccn2)cc1,.,.,-0.5,-8%,7,
COCCNS(=O)(=O)c1ccc(OCC(=O)N2CCc3ccccc3C2)c(Cl)c1,.,.,1.6,.,-15,
O=C(c1ccc(S(=O)(=O)Nc2ccccc2F)cc1)N1CCC1,.,.,-4.7,.,-2,
COCCN(C(=O)COC(=O)CCC(=O)c1cccs1)c1c(N)n(Cc2ccccc2)c(=O)[nH]c1=O,.,.,-1.8,.,-5,
CCN1CCN(c2nc3c(c(=O)n(C)c(=O)n3C)n2Cc2cccc3ccccc23)CC1,-4,-11,.,-7%,4,
CCOc1ccccc1-n1nnnc1SCC(=O)NC(=O)NCc1ccco1,4,-8,6.1,-7%,-4,
NCCc1nnc(SCc2ccccc2Cl)o1,.,.,-2.3,4%,-4,
CCC(=O)N(Cc1cc2cc(C)c(C)cc2[nH]c1=O)C1CCCCC1,-25,-51,0.9,6%,-24,
COc1ccccc1NC(=O)Nc1nc(C(C)(C)C)cs1,1,.,2.3,14%,4,
COc1ccc2oc(=O)c(C(=O)NCc3ccco3)cc2c1,-3,.,-47,6%,7,
COc1cc(OC)c(C(=O)O/N=C(\N)c2ccc(C)cc2)cc1OC,.,.,4.0,.,19,
N#Cc1c(-c2ccccc2)nc(-c2ccccc2)[nH]c1=O,6,-8,-4.9,-1%,39,
CC1(C)CC(N2CCOCC2)=CC(=[N+]2CCOCC2)C1,18,.,-1.1,-6%,-7,
CC(C)=CCN1CCN(Cc2cc(C(C)C)n[nH]2)CC1CCO (centres undefined),2,.,-0.4,-5%,-6,
Cc1ccc(CSCC(=O)N(C)CC(=O)Nc2ccc(Br)cc2C)cc1,.,.,2.4,.,-12,
COc1ccc2[nH]c(=O)c(C(c3nnnn3CC3CCCO3)N3CCCCC3)cc2c1 (centres undefined),7,.,-2.6,-7%,-3,
COc1cccc(C2N(c3cccc(Cl)c3)C(=O)C3CCCN32)c1OC (centres undefined),-4,-1,2.4,-7%,-1,
Cc1ccc(S(=O)(=O)Nc2ccc(S(=O)(=O)N3CCOCC3)cc2)cc1[N+](=O)[O-],.,.,-2.8,.,4,
CC[n+]1c(C=C2C=C(C)OC(C)=C2)sc2ccccc21,-6,.,0.9,-2%,.,
Cc1csc(SCC(=O)Nc2nccs2)n1,.,.,-5.0,.,-1,
CC(NC(=O)c1ccccc1Br)c1nnc(SCC(=O)NC2=NCCS2)n1C (centres undefined),.,.,0.3,.,-6,
CCOC(=O)c1sc(C)nc1C1CCN(C(=O)OCC)CC1,4,-29,-1.4,-5%,-2,
CC(C)(C)OC(=O)N1CCC[C@H]1c1nnc(SCC(=O)Nc2cccc(Cl)c2)o1,.,.,1.1,-13%,2,
O=C(OCc1nnc(-c2ccccc2)o1)c1ccc2c(c1)C(=O)N(CCc1ccccc1)C2=O,2,-15,-0.4,0%,49,
Cc1cc2nc(CCN(Cc3cccnc3)C(=S)Nc3ccc(F)cc3)[nH]c2cc1C,8,-19,1.4,-10%,-2,
Cc1nnc(SCC2=C(C(=O)O)N3C(=O)C(NC(=O)Cn4nc(C(F)F)c(Cl)c4C)C3SC2)s1 (centres undefined),-8,.,0.7,2%,66,
CC12CN3CC(C)(CN(C1)P3(=O)Oc1ccccc1)C2=O (centres undefined),0,-33,-2.6,-4%,-14,Arbovirus inh repeat=3
O=c1[nH]c2cc(Cl)ccc2n(CCNc2ncc(C(F)(F)F)cc2Cl)c1=O,4,-24,-0.1,.,1,
COc1ccc(NC(=O)C(OC(=O)c2cnccn2)c2ccccc2)cc1Cl (centres undefined),.,.,5.6,.,3,
Cc1cc(C)n(C(=O)C2CCCN2S(=O)(=O)c2ccc(Cl)cc2)n1 (centres undefined),-2,-37,0.4,.,-4,
Cc1cc(Cl)ccc1C(=O)C1CCCN(C2CCSCC2)C1 (centres undefined),12,.,-0.6,-1%,0,
O=C(CSCc1ccccc1)N1CCN(c2ccccc2)CC1,0,3,6.9,4%,0,
O=C(O)c1nn(-c2ccccc2-c2n[nH]c(=O)[nH]c2=O)c(=O)[nH]c1=O,.,.,0.4,-4%,11,
C=CCn1c(SC)nc2sc3c(c2c1=O)CCc1ccccc1-3,1,-16,27,3%,0,
Cc1ccc(C(=O)NNC(=O)Cn2nnc3ccccc32)cc1,.,.,-1.9,-15%,3,
O=S(=O)(c1ccc(F)cc1)N1CC2CCCN2c2ccc(C(F)(F)F)cc21 (centres undefined),-2,-5,2.4,-2%,-1,
O=C(CN1C(=O)NC2(CCCCCCC2)C1=O)N1CCN(C(=O)c2ccco2)CC1,17,-18,-0.2,-4%,4,
CCCS(=O)(=O)N1CCC(C(=O)NCCCOC)CC1,7,-27,2.7,-1%,-3,
NC(=O)C1CCN(C(=O)/C=C/c2ccccc2[N+](=O)[O-])CC1,.,.,.,-12%,0,
CCOC(=O)C1=C(C)NC(=S)NC1c1ccc(C)s1 (centres undefined),3,.,-0.1,8%,12,
O=C(c1ccc(N2CCCS2(=O)=O)cc1)N1CCN(c2ccccc2)CC1,.,.,-0.1,.,5,
CCCCOCCCNC(=O)Cc1ccccc1OC,-2,-39,1.7,-2%,10,
Clc1ccc(-c2cc(COc3ccc4ccccc4c3)no2)cc1,3,-8,-2.9,.,-4,
Oc1ccc(Br)cc1CNc1cnc2ccccc2c1,.,.,-1.3,.,97,
C/C=C/c1ccc(OCC(=O)Nc2cc(Cl)ccc2-n2cncn2)c(OC)c1,.,.,-0.7,.,-10,
CCCc1cc(=O)oc2cc(OCc3cc(OC)c(OC)c(OC)c3)c(Cl)cc12,-10,-22,1.0,-2%,-10,
CC(NC(=O)c1cnc2ccccc2n1)c1ccccc1 (centres undefined),.,.,-4.2,.,-1,
CSCC[C@H](NC(=O)OC(C)(C)C)C(=O)N/N=C/c1cccc2cccnc12,.,.,0.1,-1%,7,
CN(C)c1ccc(C=C2C(=O)NC(=O)NC2=O)cc1[N+](=O)[O-],3,.,.,6%,-7,
Cc1cc(CN(C)C(=O)c2ccc3nc(Cc4ccccc4F)oc3c2)n[nH]1,.,.,1.6,.,-10,
N#Cc1c(-c2ccc(Cl)cc2)ccn2nc(C3CCCCC3)nc12,-6,-17,0.1,6%,26,
Cc1ccccc1C(=O)NC1CCN(CC(=O)Nc2nccs2)CC1,6,-30,-0.7,-4%,-7,
Fc1ccc(Nc2nc3ccccc3s2)cc1,4,.,3.3,4%,-4,

# Seven compounds already listed, sorted by SMILES length, rising.
SMILES,Arbovirus inh,YopH inh,RecA intein inh,Mtb H37Rv,Mtb betalactam,others
Fc1ccc(Nc2nc3ccccc3s2)cc1,4,.,3.3,4%,-4,
Oc1ccc(Br)cc1CNc1cnc2ccccc2c1,.,.,-1.3,.,97,
CC(NC(=O)c1cnc2ccccc2n1)c1ccccc1 (centres undefined),.,.,-4.2,.,-1,
Cc1ccccc1C(=O)NC1CCN(CC(=O)Nc2nccs2)CC1,6,-30,-0.7,-4%,-7,
N#Cc1c(-c2ccc(Cl)cc2)ccn2nc(C3CCCCC3)nc12,-6,-17,0.1,6%,26,
CN(C)c1ccc(C=C2C(=O)NC(=O)NC2=O)cc1[N+](=O)[O-],3,.,.,6%,-7,
Cc1cc(CN(C)C(=O)c2ccc3nc(Cc4ccccc4F)oc3c2)n[nH]1,.,.,1.6,.,-10,
